# Screens: PubChem BioAssay, ICCB-Longwood Screening Facility, Harvard Medical School
# RVFV N-RNA inh: inhibitors of RVFV nucleoprotein–RNA binding, primary screen, biochemical, fluorescence polarization | P21700 | RVFV N-RNA binding; stronger effect = lower value | % bound, % (no concentration beside the values) | hit rate 0.1% among 20,000;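 active means between 0 and 58% in either replicate with normal brightness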;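 further: 100 nL library stock added to about 12 µL; 100% = protein and probe without compound and 0% = probe alone; numbers are from one replicate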
# Target sequence (P21700 whole entry, looked up): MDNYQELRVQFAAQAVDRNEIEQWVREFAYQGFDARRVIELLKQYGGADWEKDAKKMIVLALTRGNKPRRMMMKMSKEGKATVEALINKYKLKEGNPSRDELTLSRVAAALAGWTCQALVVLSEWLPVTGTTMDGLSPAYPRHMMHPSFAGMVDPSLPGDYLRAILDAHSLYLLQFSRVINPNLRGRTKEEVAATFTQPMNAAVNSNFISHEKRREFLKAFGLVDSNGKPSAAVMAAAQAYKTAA
# Starred values were filed as active, the others as inactive; & = joins results of further samples. Not all compounds are listed. The share of hits here may be higher or lower than overall.
SMILES,RVFV N-RNA inh
COC(=O)c1ccc(NC(=O)Cc2ccc(F)cc2)cc1,100
CCN[C@H]1C[C@H](C)S(=O)(=O)c2sc(S(N)(=O)=O)cc21,93
O=C(O)COCC(=O)NC1CCCCNC1=O (stereo not drawn),92
Cc1c(C(=O)Oc2cccc3cccnc23)oc2ccccc12,94
Cc1ccc(C(=O)NCc2ccccc2)cc1,97
CCOC(=O)c1[nH]c(C)c(C(=O)N(CC)C2CCCCC2)c1C,94
N#C/C(=C\c1ccc[nH]1)C(=O)NCCc1ccccn1,98
CN(C)C(=S)Nc1nc2ccccc2s1,88
N#Cc1c2c(c(=O)n3c1[nH]c1ccccc13)CCCC2,100
Cc1c(-c2ccnc(=S)[nH]2)sc2nc(C(F)(F)F)nn12,97
CSC1=NCCN1C(=O)c1cccs1,98
CCCN(CCC)[C@@H]1CCc2cccc(O)c2C1,98
O=c1n(Cl)c(=O)n(Cl)c(=O)n1Cl,104
C=CCn1c(CC(C)C)nnc1SCC(=O)c1ccc(Cl)cc1,95
CC1CCN(C(=S)c2ccc(O)cc2)CC1,92
O=S(=O)(Nc1nc2ccc(S(=O)(=O)N3CCCCC3)cc2s1)c1ccccc1,95
C=CCn1c(SCc2cc(=O)[nH]c(C34CC5CC(CC(C5)C3)C4)n2)n[nH]c1=O,97
NC(=O)C1CCCN(Cc2ccc(Cl)cc2)C1 (stereo not drawn),90
CCOC(=O)c1c(NC(=O)/C=C/C(=O)O)sc2c1CCN(C(C)=O)C2,89
OC[C@H]1O[C@@H](n2cnc3c(N[C@H]4CCC[C@@H]4O)ncnc32)[C@@H](O)C1O (stereo partly drawn),96
Cc1cc(NC(=O)NCc2ccccc2)no1,96
O=C(NCCc1cnc[nH]1)c1cccs1,96
C=CCSc1ncnc2c1cnn2-c1ccc(Cl)cc1,98
O=C(NC1(C(=O)O)CCCCC1)c1cccs1,96
O=C(CSc1nc2ccccc2o1)N1CCCc2ccccc21,100
CCSc1ccccc1C(=O)Nc1nc2ccccc2c(=O)[nH]1,97
CC1(C)C2CCC1(CS(=O)(=O)N1CCN(Cc3ccccc3)CC1)C(=O)C2 (stereo not drawn),98
Cc1cc(-c2ccccc2)n[nH]1,95
O=C(c1ccc(Cl)cc1)N(Cc1cccs1)C1CCS(=O)(=O)C1 (stereo not drawn),92
O=C(O)CCc1nn2cnc3sc4c(c3c2nc1=O)CCCC4,100
O=C1c2ccncc2C(=O)N1c1ccc(N2CCOCC2)cc1,98
COC(=O)Cn1cnc2c(cnn2-c2ccccc2C)c1=O,99
COC(=O)CCC(=O)Oc1ccc2ccccc2c1,101
CN1CCN(NC(=O)CN(C)S(=O)(=O)c2cc(Cl)ccc2Cl)CC1,95
CC(C)NC(=O)c1ccc(S(=O)(=O)N(C)C)cc1,96
CN1CCN(C(CNC(=O)c2cccc(F)c2)c2ccc(F)cc2)CC1 (stereo not drawn),91
COc1cc(SC)ccc1C(=O)N1CCC(Cc2ccccc2)CC1,97&94
Cc1cc2nc3ccc(=[N+](C)C)cc-3sc2cc1N,104
COc1ccc(-c2c(C(F)(F)F)nn(C)c2NC(C)=O)cc1,97
Cc1ccccc1OCC(=O)NN1C(=O)C2C3C=CC(O3)C2C1=O (stereo not drawn),100

# Of the compounds above, seven contain a thiophene ring, fused or not:
SMILES,RVFV N-RNA inh
CCN[C@H]1C[C@H](C)S(=O)(=O)c2sc(S(N)(=O)=O)cc21,93
CSC1=NCCN1C(=O)c1cccs1,98
CCOC(=O)c1c(NC(=O)/C=C/C(=O)O)sc2c1CCN(C(C)=O)C2,89
O=C(NCCc1cnc[nH]1)c1cccs1,96
O=C(NC1(C(=O)O)CCCCC1)c1cccs1,96
O=C(c1ccc(Cl)cc1)N(Cc1cccs1)C1CCS(=O)(=O)C1 (stereo not drawn),92
O=C(O)CCc1nn2cnc3sc4c(c3c2nc1=O)CCCC4,100

# Returning to the listing; the 8 compounds before the break are reprinted first.
SMILES,RVFV N-RNA inh
COC(=O)CCC(=O)Oc1ccc2ccccc2c1,101
CN1CCN(NC(=O)CN(C)S(=O)(=O)c2cc(Cl)ccc2Cl)CC1,95
CC(C)NC(=O)c1ccc(S(=O)(=O)N(C)C)cc1,96
CN1CCN(C(CNC(=O)c2cccc(F)c2)c2ccc(F)cc2)CC1 (stereo not drawn),91
COc1cc(SC)ccc1C(=O)N1CCC(Cc2ccccc2)CC1,97&94
Cc1cc2nc3ccc(=[N+](C)C)cc-3sc2cc1N,104
COc1ccc(-c2c(C(F)(F)F)nn(C)c2NC(C)=O)cc1,97
Cc1ccccc1OCC(=O)NN1C(=O)C2C3C=CC(O3)C2C1=O (stereo not drawn),100
Cc1onc(-c2ccccc2)c1C(=O)N1CCN(S(=O)(=O)c2ccccc2)CC1,98
CN(Cc1ccccc1)c1nc2c(c(=O)[nH]c(=O)n2C)n1CCCOc1ccccc1,91
CS(=O)(=O)c1ccc(CC(=O)O)cc1,96
C1=CC2C=CC1c1ccccc12,92
C/C=C/C1(/[N+]([O-])=C/c2ccccc2)CCCCC1,88
c1ccc2nc3c(nc2c1)CCCC3,96
CN(C)C(=O)N1CCC(Cc2ccccc2)CC1,111
Cc1cc(NC(=O)c2ccc(NS(=O)(=O)c3ccc(F)cc3)cc2)no1,91
COc1ccc(NC(=O)COc2ccccc2Cl)cc1NC(=O)c1ccco1,99
c1ccc(CCc2nc(-c3ccccc3)no2)cc1,89
CN(C)C(=O)n1nnc2ccccc21,102
O=c1c(Br)c(NCCCO)cnn1-c1ccccc1,88
CC(=O)Nc1cc2c(cc1C(=O)C(C)C)OCCO2,97
COc1ccc(C2CC(=O)c3cnc(NC(=O)c4ccccc4)nc3C2)cc1 (stereo not drawn),104
COc1c(C)cc(Br)cc1C(=O)NC(=S)Nc1cccc(-c2nc3ncccc3o2)c1C,91
FC(F)(F)c1ccccc1-n1ccnc1,103
Cc1ccc(C)c(Cn2cnc3c(cnn3CCO)c2=O)c1,100
CC(C)OC(=O)CC1C(=O)NCCN1C(=S)NC(=O)C1CCCCC1 (stereo not drawn),96
COc1cnn(C(C)(C)C)c(=O)c1Cl,92
O=C(CSCCOc1ccccc1)N1CCOCC1,97

# In a second layout: results already given
molecule | RVFV N-RNA inh
FC(F)(F)c1ccccc1-n1ccnc1 | 103
O=c1c(Br)c(NCCCO)cnn1-c1ccccc1 | 88
CN(C)C(=O)n1nnc2ccccc21 | 102
COc1ccc(C2CC(=O)c3cnc(NC(=O)c4ccccc4)nc3C2)cc1 (stereo not drawn) | 104
COc1c(C)cc(Br)cc1C(=O)NC(=S)Nc1cccc(-c2nc3ncccc3o2)c1C | 91
COc1cnn(C(C)(C)C)c(=O)c1Cl | 92
CC(=O)Nc1cc2c(cc1C(=O)C(C)C)OCCO2 | 97
CC(C)OC(=O)CC1C(=O)NCCN1C(=S)NC(=O)C1CCCCC1 (stereo not drawn) | 96

# Continuation:
SMILES,RVFV N-RNA inh
CCn1c(C)cc2c(c1=O)C1(C(=O)Nc3ccccc31)C(C(=O)OC)=C(N)O2 (stereo not drawn),91
O=C(CC1Nc2ccccc2NC1=O)Nc1ccc(O)cc1 (stereo not drawn),100
O=C(C1CC1)N(Cc1ccccn1)c1nc2ccccc2s1,96
O=c1/c(=C/c2cccs2)sc2ncnn12,98
COCCCn1c(=O)cc(C)[nH]c1=S,88
CCN1CCN(C(=O)N[C@@H](C(=O)N[C@@H]2C(=O)N3C(C(=O)O)=C(CSc4nnnn4C)CS[C@H]23)c2ccc(O)cc2)C(=O)C1=O,102
CC(C)CC(=O)Nc1ccc(C(=O)Nc2ccc(O)cc2)cc1,91
CCc1ccc(OCCNc2nc(C)c(Br)c(=O)[nH]2)cc1,103
CCn1nc(Nc2ccc(C)cc2)c(Cl)c1Nc1ccc(C)cc1,108
Cc1nc(C(F)(F)F)nc(N2CCCCC2)c1Oc1ccccc1,89
CCC(=O)Nc1cccc(-c2nc3ccccc3o2)c1C,99
O=C1NC(=O)C(=CN2CCc3ccccc32)C(=O)N1,98
CC1CCc2cc(F)ccc2N1C(=O)c1ccc(=O)[nH]n1 (stereo not drawn),92
OC1CCN(Cc2ccc(F)cc2)CC1,94
CC(=O)O/N=C/c1ccc(N(C)C)cc1,93
NNC(=O)CO/N=C/c1ccc(Cl)cc1Cl,99
Cc1ccc(NS(=O)(=O)c2ccc(OCC(=O)N3CCN(C)CC3)cc2)cc1,104
C=CCn1c(CCNC(=O)c2cccs2)nnc1SCC(=O)Nc1cccc(F)c1,90
O=C1OC(c2nn3c(-c4ccco4)nnc3s2)Cc2ccccc21 (stereo not drawn),93
COc1cc(C(=O)Nc2ccc(S(=O)(=O)NC(C)C)cc2)cc(OC)c1OC,94
CSc1nc(N/C=C2/C(=O)c3ccccc3N(C)S2(=O)=O)nc(C2CC2)n1,99
O=C(O)c1cccnc1OCc1ccccc1,90
CCOP(C)(=O)CN1CCOCC1 (stereo not drawn),91
O=C(/C=C/c1ccc(F)cc1)NC(=S)NN1CCOCC1,89
CN(CC(N)=O)S(=O)(=O)c1ccc(F)cc1,96
CN(c1ccccc1)S(=O)(=O)c1ccc(C(=O)Nc2nnc(C(F)(F)F)o2)cc1,93
Cc1ccc(C(C)NC(=O)c2ccc3c(c2)OCO3)cc1C (stereo not drawn),102
CSC1=NCCN1C(=O)c1ccc(C(F)(F)F)cc1,96
O=C(Nc1ccccc1C(=O)N1CCCC1)Oc1ccccc1,94
C=C(C)Cn1c(N2CC(C)CC(C)C2)nc2c1c(=O)n(C)c(=O)n2C (stereo not drawn),100
c1ccc(Cn2c(CN3CCCC3)nc3ccccc32)cc1,112
CCCCC(=O)O[C@H]1CC[C@H]2[C@@H]3CCc4cc(O)ccc4[C@H]3CC[C@]12C,101
CCOC(=O)C1=NNC2C(=O)N(Cc3ccccc3)C(=O)C12 (stereo not drawn),103
Cc1ccc(S(=O)(=O)NCc2csc(C)n2)c(C)c1,105
COc1ccc(-c2nc3ccccc3c(=O)n2CCN2CCOCC2)cc1,97
Clc1ccc(N=Cc2c(-c3ccccc3)nc3n2CCS3)cc1,99
O=S(=O)(c1ccccc1)c1cnc2ccccc2c1N1CCCC1,93
O=C1NC(=S)NC(=O)C1=CN1CCc2ccccc2C1,98
O=C(O)CSCC(=O)Nc1cccc(O)c1,93
CC(=O)N1CCC(c2ccc(Cl)cc2)=N1,94
Cc1c(C(=O)N2CCN(C)CC2)oc2c1C1(CCC2)SCCS1,95
N#CCCN(CC1COc2ccccc2O1)C(=O)c1ccccc1 (stereo not drawn),95
CCc1c(C)sc(NC(=O)c2ccco2)c1C(=O)NCc1ccccc1,99
CCn1nc(NC(=O)c2ccco2)c2cc3ccc(C)cc3nc21,90
CC1CCN(CC(=O)Nc2ccccc2Br)CC1,90
Nc1ccc(CCC(=O)O)cc1,90
COc1ccccc1/C=C/C=N/n1c(-c2ccncc2)n[nH]c1=S,109
N#CCSc1nc(N2CCOCC2)nc(N2CCOCC2)n1,100
CCCS(=O)c1ccccc1 (stereo not drawn),98
Cc1ccc(SCC(=O)Nc2ccc3c(c2)n(C)c(=O)n3C)cc1,91

# Additional records.
SMILES,RVFV N-RNA inh
Cc1ccc(-c2nnc(N3CCN(c4ccccn4)CC3)c3ccccc23)cc1,84
O=C(CSc1nc2ccccc2[nH]c1=O)NCc1ccco1,94
O=C(N1CCCCC1)N1CCN(C(=O)N(c2ccccc2)c2ccccc2)CC1,103
COC1=C(N2CCOCC2)C(=O)c2ccccc2C1=O,103
O=C(OCc1ccc2nonc2c1)c1cc(-c2ccccc2)nc2ccccc12,92
O=S(=O)(/N=C(/Nc1cc(N2CCOCC2)ncn1)c1ccc(F)cc1)c1ccccc1,93
Cc1ccc(Cn2cccc(C(=O)Nc3ccon3)c2=O)cc1,93
O=C(CC(NC1CCCC1)C(=O)O)Nc1ccc(Oc2ccccc2)cc1 (stereo not drawn),97
O=C(NCCc1ccccc1F)C1CC(=O)N(c2ccccc2)C1 (stereo not drawn),94
CN1C(=O)C2N=NN(c3ccccc3)C2C1=O (stereo not drawn),94
NC(Cc1ccccc1)C(=O)O (stereo not drawn),92
O=C(CSC1CCCCC1)NCc1ccccc1,84
Cc1cccc(NC(=O)CS(=O)(=O)c2cn(C)c3ccccc23)c1,96
CC1=NOC(=O)/C1=C/c1ccc(O)cc1,102
